Screens deposited in PubChem by National Center for Advancing Translational Sciences (NCATS).
2A StopGo – FMDV 2A StopGo reporter, luciferase signal; human cells with a luciferase reporter of 2A StopGo recoding; control for the full effect not named in the record; Potency, µM (titrated, usually from 57.9 µM), without a hit: at the highest dose signal change, negative = less light; hit rate 1.2% among 410,000; AID 1159524; active = well fitted falling curve with a large enough effect; inconclusive = small, poorly fitted or top-dose-only effect; inactive = no such curve, though single readings can be large or run the other way; tested in HEK293T cells; further: on the % scale 0 is the no-effect control and ±100 the full control effect; nearly all actives have a fitted effect of over 45% in size; luciferase light after 4 h
RE007 growth inh – less growth of the S. pombe RE007 Vpr strain. hit rate 0.21% among 360,000. Potency, µM (titrated, usually from 92.2 µM), for the others: top-dose activity change, negative = less growth. AID 651644. S. pombe RE007 Vpr strain, BacTiter-Glo ATP luminescence, 24 h; control for the full effect not named in the record; active = well fitted falling curve with a large enough effect; inconclusive = small, poorly fitted or top-dose-only effect; inactive = no such curve, though single readings can be large or run the other way;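 further: on the % scale 0 is the no-effect control and ±100 the full control effect; nearly all actives have a fitted effect of over 50% in size; the assay follows cell death caused by Vpr and the record does not say whether a fall means rescue or toxicity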
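Fission yeast strain RE007, carrying one chromosomally integrated HIV-1 vpr copy, was seeded at OD 0.01 in PMG+AL medium with 23 nL pinned compound. After 24 h at 30 °C and 99% humidity, viability was read by BacTiter-Glo luminescence.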
SARS PLP yeast – inhibitors of SARS-CoV papain-like protease in yeast | Potency, µM (top dose mostly 32.9 µM), for inactives: at the highest dose activity, positive = growth rescue | S. cerevisiae expressing SARS-CoV PLpro, growth rescue; control for the full effect not named in the record | AID 485353 | hit rate 0.19% among 330,000; active means well fitted rising curve with a large enough effect; inconclusive means small, poorly fitted or top-dose-only effect; inactive means no such curve, though single readings can be large or run the other way; further: 0% is about no effect; nearly all actives have a fitted effect of over 55% in size; growth read by luminescence after 48 h
* hit, by the source's call; ? = inconclusive; [ ] = remark or other dose. Potency means the concentration at half of the fitted maximal effect.

The opening 15 records (preview)
Sequence of screens – 2A StopGo | RE007 growth inh | SARS PLP yeast
1. COc1cccc(C2=CC(=O)C[C@H](c3ccc4c(c3)OCO4)C2)c1
    -9% | 0% | 2%
2. CC(C)[C@H](NC(=O)c1ccccc1Cl)C(=O)OCC(=O)NCc1ccc2c(c1)OCO2
    -8% | 1% | 0%
3. Cc1ccc(S(=O)(=O)N2CCC(C(=O)NN3CCCCC3)CC2)cc1
    -12% | -11% | 2%
4. CC(c1ccccc1)N(C)C(=O)CSc1nnc(C2CC2)n1C1CC1 (stereo not given)
    -14% | -3% | -1%
5. C=CCN(c1ccc(Br)cc1C(=O)OC)S(C)(=O)=O
    -29% | 21% | -4%
6. COc1ccccc1C(=O)NCCC(=O)Nc1cccc(S(=O)(=O)N2CCCC2)c1
    0% | 5% | -4%
7. CC(=O)c1ccc(OCC(=O)OCC(=O)Nc2sccc2C(N)=O)cc1
    1% | -4% | 5%
8. Cc1[nH]c2ccc(F)cc2c1CCN(Cc1ccco1)C(=S)NC(C)(C)C
    24% | -10% | -2%
9. Cc1ccc(S(=O)(=O)N2[C@@H](c3ccc(C(C)(C)C)cc3)C(C(=O)O)=CC[C@H]2c2ccc3c(c2)OCO3)cc1
    -18% | -7% | 28%
10. Cc1ccc(S(=O)(=O)N2CCN(CCOc3cccc(C)c3)CC2)cc1
    ? | 2% | -7%
11. O=C1C=C(c2cccc(Br)c2)C[C@@H](c2ccc3c(c2)OCO3)C1
    -7% | -1% | -22%
12. CC1CCc2c(sc(NC(=O)c3ccc(N4C(=O)CCC4=O)cc3)c2C(N)=O)C1 (stereo not given)
    -3% | 3% | -9%
13. CN(C)C1=NC(=O)/C(=C\c2ccccc2)S1
    11% | -2% | -1%
14. CC(C)n1ncc2c(C(=O)NCc3ccccc3CN(C)C)cc(C3CC3)nc21
    -20% | -2% | 7%[6.58 µM]
15. COc1ccc(C)cc1NC(=O)C1CCCCN1S(=O)(=O)c1ccccc1 (stereo not given)
    -28% | 8% | -4%

Main list, from the start:
Sequence of screens – 2A StopGo | RE007 growth inh | SARS PLP yeast
1. COc1cccc(C2=CC(=O)C[C@H](c3ccc4c(c3)OCO4)C2)c1
    -9% | 0% | 2%
2. CC(C)[C@H](NC(=O)c1ccccc1Cl)C(=O)OCC(=O)NCc1ccc2c(c1)OCO2
    -8% | 1% | 0%
3. Cc1ccc(S(=O)(=O)N2CCC(C(=O)NN3CCCCC3)CC2)cc1
    -12% | -11% | 2%
4. CC(c1ccccc1)N(C)C(=O)CSc1nnc(C2CC2)n1C1CC1 (stereo not given)
    -14% | -3% | -1%
5. C=CCN(c1ccc(Br)cc1C(=O)OC)S(C)(=O)=O
    -29% | 21% | -4%
6. COc1ccccc1C(=O)NCCC(=O)Nc1cccc(S(=O)(=O)N2CCCC2)c1
    0% | 5% | -4%
7. CC(=O)c1ccc(OCC(=O)OCC(=O)Nc2sccc2C(N)=O)cc1
    1% | -4% | 5%
8. Cc1[nH]c2ccc(F)cc2c1CCN(Cc1ccco1)C(=S)NC(C)(C)C
    24% | -10% | -2%
9. Cc1ccc(S(=O)(=O)N2[C@@H](c3ccc(C(C)(C)C)cc3)C(C(=O)O)=CC[C@H]2c2ccc3c(c2)OCO3)cc1
    -18% | -7% | 28%
10. Cc1ccc(S(=O)(=O)N2CCN(CCOc3cccc(C)c3)CC2)cc1
    ? | 2% | -7%
11. O=C1C=C(c2cccc(Br)c2)C[C@@H](c2ccc3c(c2)OCO3)C1
    -7% | -1% | -22%
12. CC1CCc2c(sc(NC(=O)c3ccc(N4C(=O)CCC4=O)cc3)c2C(N)=O)C1 (stereo not given)
    -3% | 3% | -9%
13. CN(C)C1=NC(=O)/C(=C\c2ccccc2)S1
    11% | -2% | -1%
14. CC(C)n1ncc2c(C(=O)NCc3ccccc3CN(C)C)cc(C3CC3)nc21
    -20% | -2% | 7%[6.58 µM]
15. COc1ccc(C)cc1NC(=O)C1CCCCN1S(=O)(=O)c1ccccc1 (stereo not given)
    -28% | 8% | -4%

Full records, looked up by structure:
COc1cccc(C2=CC(=O)C[C@H](c3ccc4c(c3)OCO4)C2)c1 reads 2A StopGo: -9%; RE007 growth inh: 0%; SARS PLP yeast: 2%
CC(=O)c1ccc(OCC(=O)OCC(=O)Nc2sccc2C(N)=O)cc1 reads 2A StopGo: 1%; RE007 growth inh: -4%; SARS PLP yeast: 5%

(continued)
Sequence of screens – 2A StopGo | RE007 growth inh | SARS PLP yeast
16. Cc1ccc(S(=O)(=O)Nc2cccc3c2O[C@H](CN(C)C(=O)Nc2cccc4ccccc24)[C@H](C)CN([C@H](C)CO)C3=O)cc1
    -17% | -14% | 5%
17. COc1ccc(C)cc1NC(=O)COC(=O)c1ccc2c(c1)OCCO2
    -8% | 2% | 1%
18. COc1ccc(OCCCC(=O)ON=C(N)c2ccccc2C)cc1
    -20% | -22% | -5%
19. CN1CC(=O)N(CC(=O)Nc2cc(Cl)cc(Cl)c2)C1=O
    -10% | 1% | -2%
20. O=C(O)CCCc1c(-[n+]2ccccc2)[nH]c2ccccc12
    5% | -12% | 8%
21. CCOc1ccc(OCC(=O)OC(C)C(=O)NC2CCCC2)cc1 (stereo not given)
    -9% | -4% | 0%
22. Cc1nc(C(=O)O)cc2c1[nH]c1ccccc12
    0% | 4% | -5%
23. O=c1[nH][nH]c2cc(=O)n(-c3cccc(C(F)(F)F)c3)nc12
    -7% | -4% | 0%
24. NC(=O)c1ccc(N2CCN(S(=O)(=O)c3cccs3)CC2)c([N+](=O)[O-])c1
    20µM* | 12% | -5%
25. CC(=O)c1cccc(NS(C)(=O)=O)c1
    18% | 1% | 3%
26. C=CCN1C(=O)C(=O)N(CC(=O)c2ccc3c(c2)CCCC3)C1=O
    28% | -3% | -6%
27. Cc1cccc(C)c1NC(=O)C1c2cccc[n+]2CC(=O)N1Cc1cccs1 (stereo not given)
    -2% | -9% | 3%
28. COc1ccc2c(c1)[C@H]1[C@H](CO2)[C@H](c2ccccc2)[C@]2(C)C(=O)N(CC3CCCO3)CC(=O)N12 (stereo not given in full)
    -13% | 0% | -18%
29. CC(C)(OC(=O)c1cccs1)c1cc2ccccc2c(=O)o1
    3% | -1% | 1%
30. Cc1ccc2c(c1)[C@H]1[C@H](CO2)[C@H](c2ccccc2)[C@]2(C)C(=O)Nc3cc(Cl)ccc3C(=O)N12
    -23% | 16% | 1%
31. CC(C)(C)c1ccc(NC(=O)CSc2n[nH]c(=O)n2C2CC2)cc1
    ? | 7% | -1%
32. CC(C)Cn1c(=S)[nH]c2ccccc2c1=O
    -2% | 16% | 2%
33. O=C(Nc1nnc(SCc2cccc(F)c2)s1)c1ccco1
    14% | -8% | 1%
34. CN(CC(=O)Nc1cccc(F)c1)C(=O)c1cc(S(=O)(=O)N2CCN(c3ccccc3)CC2)ccc1Cl
    ? | -3% | -9%
35. CO[C@H]1CC[C@@]2(C)[C@@H](CC[C@@H]3[C@@H]2CC[C@@]2(C)[C@H]3C[C@H](C(=O)O)O[C@]23CCCO3)C1
    -15% | 0% | -20%
36. COc1ccc(CNC(=O)Cn2cnc3c(SC)nc(N)nc32)cc1
    -1% | -4% | 0%
37. O=[N+]([O-])c1ccccc1Nc1cccnc1
    -8% | 20% | 2%
38. CCOc1cccc(-c2nc3c(s2)CCc2onc(-c4cccc([N+](=O)[O-])c4)c2-3)c1
    -4% | -13% | 1%
39. CN(Cc1ccccc1)C(=O)c1ncn(Cc2ccccc2)c1C(=O)N(C)Cc1ccccc1
    -19% | -22% | -3%
40. CCN(C[C@H]1N[C@@](C)(C(=O)OC)[C@H]2C(=O)N(C)C(=O)[C@@H]12)C(=O)Nc1ccc(Cl)cc1
    -8% | 7% | -1%
41. C#CCOCCOCCOCCNc1nc(N2CCN(C(=O)[C@H](CCCCN)n3cc([C@@H](N)C(C)CC)nn3)CC2)nc(N2CCN(C(=O)[C@H](Cc3cc4ccccc4[nH]3)n3cc([C@@H](N)C(C)CC)nn3)CC2)n1 (stereo not given in full)
    0% | 13% | -2%
42. c1ccc2c(C[C@@H]3CNCCN3CC3CCCCC3)cccc2c1
    -17% | 7% | 11%
43. CCOc1ccc(S(=O)(=O)Nc2cccc(C(=O)NCC(c3ccco3)N3CCCC3)c2)cc1 (stereo not given)
    3% | -11% | -1%
44. Cc1ccccc1S(=O)(=O)N1CC(C(=O)O)=CC[C@H]1c1ccc(Cl)cc1
    -1% | 29% | -1%
45. CCOc1ccc(OCc2ccc(C(=O)Nc3cccnc3)cc2)cc1
    -1% | 3% | 4%
46. CN(C)CC(NC(=O)c1cccc(S(=O)(=O)Nc2ccc3c(c2)OCO3)c1)c1ccccc1 (stereo not given)
    22% | -20% | -7%[6.58 µM]
47. CCN1C(=O)[C@H]2[C@H]3CN=C(SCc4ccc(OC)cc4)N3[C@@](CC)(C(=O)OC)[C@H]2C1=O
    -5% | -1% | 24%
48. O=C1N(c2ccccc2C(F)(F)F)O[C@]1(c1ccccc1)C1CCCCC1
    -2% | 11% | -2%
49. Cc1ccc(C(=O)c2cccc(N)c2)cc1C
    ? | -22% | 1%
50. CCOc1ccc(S(=O)(=O)N2CCN(C(=O)c3cc([N+](=O)[O-])ccc3N3CCOCC3)CC2)cc1
    -18% | 7% | -1%
51. CC(C)(C)OC(=O)C[C@H]1C/C=C\C[C@H](CC(=O)N[C@H](CO)Cc2ccccc2)C(=O)N[C@H](C(C)(C)C)COC1=O
    10% | -3% | 8%
52. Cc1ccc(S(=O)(=O)NCC(=O)OCC(=O)N2CC(C)OC(C)C2)cc1 (stereo not given)
    -12% | -1% | 1%
53. CCOC(=O)NC(=O)CSc1ccc(S(=O)(=O)N2CCCCC2)cn1
    5% | -13% | -2%
54. C#CCOCCOCCOCCNc1nc(N2CCN(C(=O)CCCCCCCCCCNC(=O)[C@H]([C@@H](C)CC)n3cc(CCCCCN)nn3)CC2)nc(N2CCN(C(=O)CCCCCCCCCCNC(=O)[C@H](CCCCN)n3cc(CCCC(=O)O)nn3)CC2)n1
    ? | 11% | -1%
55. COc1ccc(S(=O)(=O)Nc2cccc3c2O[C@H](CN(C)C(=O)NC2CCCCC2)[C@@H](C)CN([C@H](C)CO)C3=O)cc1
    74%[activator] | -4% | -4%
56. COc1ccc(CCNC(=O)CSc2nnc3ccc(-c4ccncc4)nn23)cc1
    1% | 0% | -2%
57. Cc1ccc(C(=O)Nc2cccc(S(=O)(=O)N3CCCCC3)c2)cc1[N+](=O)[O-]
    ? | 7% | 0%
58. CC[C@@]1(C(=O)OC)N[C@H](CN(C)S(=O)(=O)c2ccc(-c3ccccc3)cc2)[C@@H]2C(=O)N(Cc3ccccc3)C(=O)[C@@H]21
    -19% | 0% | 2%
59. CCCCNc1c(-c2ccc(OC)c(Sc3ccc(OC)cc3)c2)nc2ccc(Cl)cn12
    -28% | -3% | -27%
60. O=C(CN1C(=O)C(=O)N(C2CCCC2)C1=O)Nc1ccc(OC(F)F)cc1
    -13% | 2% | -4%
61. COc1ccc(C2=NCCn3nc4cc([N+](=O)[O-])ccc4c32)cc1
    9% | -1% | -1%
62. O=C(CCc1ccccc1)Nc1cccc(S(=O)(=O)N2CCOCC2)c1
    13% | 16% | -6%
63. CCOc1ccc(N2CC(C(=O)NNC(=O)c3ccc(F)cc3)CC2=O)cc1 (stereo not given)
    6% | -1% | 4%
64. CCCSc1ccc([C@H]2N[C@@](CC(C)C)(C(=O)OC)[C@H]3C(=O)N(C)C(=O)[C@@H]23)cc1
    -25% | 21% | 5%
65. Cc1cc(C(=O)NCC(=O)OC(C)C(=O)N2CCOCC2)ccc1[N+](=O)[O-] (stereo not given)
    -7% | -1% | 5%
66. Cn1nc(C(=O)Nc2nnc(C3CC3)s2)c2ccccc2c1=O
    -21% | -11% | -1%
67. CCOC(=O)C1CCN(C(=O)c2cccc(S(=O)(=O)N(CC)c3ccccc3)c2)CC1
    -2% | -4% | 9%
68. CC(C)[C@H](NS(=O)(=O)c1ccccc1F)C(=O)NC1CCCCC1
    -13% | 8% | 3%

Only part of the results is shown; count on the stated rates, not on these rows.
